ClpP mod = qHTS Assay for Activators of ClpP; ATP-dependent Clp protease proteolytic subunit (Bacillus subtilis (strain 168)), P80244; purified B. subtilis ClpP, FRET peptide cleavage, 20 min; Potency, µM (titrated, usually from 57.5 µM), for the others: at the top dose activity change, negative = active; 1.9% of 340,000 active; active = well fitted falling curve with a large enough effect; inconclusive = small, poorly fitted or top-dose-only effect; inactive = no such curve, though single readings can be large or run the other way; further: potency means the concentration at half of the fitted maximal effect; the source files actives as falling curves though it sought activators and does not explain the sign; nearly all actives have a fitted effect of over 65% in size; many hits overshoot -100%
Target sequence (P80244 whole entry, looked up): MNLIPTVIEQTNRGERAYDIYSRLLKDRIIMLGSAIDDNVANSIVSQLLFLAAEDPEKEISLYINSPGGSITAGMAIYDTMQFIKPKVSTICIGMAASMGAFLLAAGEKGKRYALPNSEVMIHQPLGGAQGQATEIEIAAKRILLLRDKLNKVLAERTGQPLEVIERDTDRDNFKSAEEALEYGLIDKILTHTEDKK
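ClpP 10 microg/mL final, pH 8 Tris/KCl buffer with BSA, glycerol, Tween-20; compound pinned in; FRET-FV substrate; RT 20 min; Ex320/Em430; ΔFRET vs ADEP 5.8 microM, DMSO, no enzyme.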
Sfp inh = qHTS Assay for Inhibitors of Bacillus subtilis Sfp phosphopantetheinyl transferase (PPTase); 4'-phosphopantetheinyl transferase ffp (Bacillus subtilis), Q9F4F7; Biochemical Sfp PPTase activity, qHTS; Potency, µM, for inactives: max response, negative = inhibition, most hits filed as inhibitors; 3.5% of 310,000 active; active means well fitted inhibition curve with a large enough effect; inconclusive means small, poorly fitted or top-dose-only effect, or another doubt; inactive means no such curve, though single readings can be large or run the other way;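 further: the enzyme is Sfp with the accession as filed and its product quenches rhodamine fluorescence; potency means the concentration at half of the fitted maximal effect; 0% = enzyme reaction without inhibitor and -100% = no enzyme wells; top concentration of the series not given in the record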
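Sfp 15 nM + cpd, 15 min RT; start w/ rhodamine-CoA 5 uM, BHQ-2-YbbR 12.5 uM (final); 50 mM Hepes pH 7.6, 10 mM MgCl2, 0.01% NP-40, 0.01% BSA; read 525/598 nm at 0 and 30 min.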
TRPV1 PAM = HTS Assay for Compounds that Act as Potentiators of the Vanilloid Receptor 1; Transient receptor potential cation channel subfamily V member 1 (Homo sapiens), Q8NER1; TRPV1-expressing cells, Fluo-8 calcium influx, capsaicin EC20 potentiation; host cell line not named in the record; control for the full effect not named in the record; potentiation, % at 8.33 µM; 0.02% of 320,000 active; AID 540277, 2011; active means potentiation above 80%; inconclusive means 30% to 80%; inactive means below 30%; further: 0% is about no effect
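Cells expressing TRPV1 were dye-loaded with Fluo-8 and read kinetically: 10 s baseline, 3 min after compound (agonist portion), then 2 min after EC20 capsaicin (allosteric enhancer portion). Calcium-bound dye fluorescence at 480/520 nm.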
gsp antag = qHTS for Antagonists of gsp, the Etiologic Mutation Responsible for Fibrous Dysplasia/McCune-Albright Syndrome: qHTS; AID 624288, 2012; Potency, µM (doses to about 76.9 µM), inactives show at the top dose activity change, negative = inhibition, actives largely listed as inhibitors; gsp-mutant cells, cAMP HTRF, 30 min; control for the full effect not named in the record; 0.4% of 340,000 active; active = falling curve of any shape with a large fitted effect; inconclusive = falling curve, mostly with a smaller effect; inactive = flat or rising curve; cell line not stated here;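 further: intracellular cAMP measured with PDE inhibitor Ro 20-1724 present during compound exposure; potency means the concentration at half of the fitted maximal effect; on the % scale 0 is the no-effect control and ±100 the full control effect; nearly all actives have a fitted effect of over 65% in size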
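Measurement of cellular cAMP by homogeneous time-resolved fluorescence following a 30 min compound exposure at 37C. The PDE inhibitor […] was present throughout; the assay buffer was DPBS with 0.05% BSA and 0.005% Tween 20.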
Menin-MLL FL inh = qHTS Assay for Inhibitors Targeting the Menin-MLL Interaction in MLL Related Leukemias: Competition With Fluorescein Labeled MLL-derived Peptide | Fluorescence polarization, fluorescein-MLL peptide displacement from menin | FP activity change, % at 61.4 µM | 290,000 tested, under 10 active; inconclusive = falling polarisation curve, or a change in total fluorescence; inactive = total fluorescence flat and polarisation flat or rising; no compound was filed as active; the % refers to the polarisation; negative = inhibition;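 further: % of control where 0% means no effect; inhibitors lower the polarisation; unlabelled MLL peptide was the positive control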
TRPML1 blocker = qHTS for Inhibitors of the Human Mucolipin Transient Receptor Potential 1 (TRPML1); Mucolipin-1 (Homo sapiens), Q9GZU1; activity change, negative = inhibition, % (test concentration not listed); TRPML1-inducible cells, Ca2+ dye fluorescence, FDSS; stronger effect = lower value; inhibition of EC80 agonist-evoked calcium signal; 0.02% of 390,000 active; in the data active means activity change below about -50%; inconclusive means about -30% to -50%; inactive means above about -30%;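 further: stimulus is agonist 54-4 at its EC80 concentration; on the % scale 0 is the no-effect control and ±100 the full control effect; compound concentration not given in the record; the text of the record puts the active cut at -80%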
Target sequence (Q9GZU1 whole entry, looked up): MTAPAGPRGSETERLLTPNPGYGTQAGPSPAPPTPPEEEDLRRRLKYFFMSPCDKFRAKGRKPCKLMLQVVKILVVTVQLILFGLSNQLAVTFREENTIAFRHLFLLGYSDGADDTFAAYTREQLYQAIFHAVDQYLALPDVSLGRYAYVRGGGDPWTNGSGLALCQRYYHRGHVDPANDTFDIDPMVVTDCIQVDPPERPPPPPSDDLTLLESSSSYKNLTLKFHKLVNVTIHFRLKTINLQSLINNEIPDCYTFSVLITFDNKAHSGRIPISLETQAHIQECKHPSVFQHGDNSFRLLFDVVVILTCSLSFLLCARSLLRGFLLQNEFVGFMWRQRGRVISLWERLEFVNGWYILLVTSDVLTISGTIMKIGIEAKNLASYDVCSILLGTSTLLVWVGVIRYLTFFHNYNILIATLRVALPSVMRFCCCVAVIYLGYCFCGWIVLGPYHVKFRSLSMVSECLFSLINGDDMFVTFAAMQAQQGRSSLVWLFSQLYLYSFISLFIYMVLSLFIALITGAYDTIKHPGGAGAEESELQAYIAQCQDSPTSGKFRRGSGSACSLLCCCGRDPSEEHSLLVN
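TRPML1-DL cells, Tet-induced overnight (~16 h, 37 °C) at 1,500 cells/well, were loaded with Ca8 no-wash dye plus quencher for 45-90 min at room temperature. Compounds were pinned during FDSS kinetic reading; agonist 54-4 at EC80 (4 uM final) then added.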
gsp ag = qHTS for Agonist of gsp, the Etiologic Mutation Responsible for Fibrous Dysplasia/McCune-Albright Syndrome: qHTS; 0.13% of 340,000 active; gsp mutant cells, cAMP HTRF, 30 min; control for the full effect not named in the record; Potency, µM (top dose mostly 76.9 µM), for the others: top-dose activation (cAMP increase), hits mostly activators; active = well fitted activation curve with a large enough effect; inconclusive = small, poorly fitted or top-dose-only effect, or another doubt; inactive = no such curve, though single readings can be large or run the other way; cell line not stated here;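 further: phosphodiesterase inhibitor Ro 20-1724 added with compounds to block cAMP breakdown; potency means the concentration at half of the fitted maximal effect; nearly all actives have a fitted effect of over 60% in size; about a fifth of the inactives were tested at one dose only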
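Cells in DMEM/10% FBS with G418 were pretreated with compounds in DMSO plus […] (300 uM stock) for 30 min at 37C. cAMP was measured by HTRF (cAMP-d2 plus anti-cAMP antibody-K) after 30 min at room temperature.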
The depositor's hits bear a star; ? = inconclusive; . = not tested or not shown; & = joins results of further samples; [ ] = another dose, or the depositor's remark. A portion of the library; rates above refer to the full screens.

| Compound | ClpP mod | Sfp inh | TRPV1 PAM | gsp antag | Menin-MLL FL inh | TRPML1 blocker | gsp ag |
| --- | --- | --- | --- | --- | --- | --- | --- |
| COC12CCC3(CC1C(C)(O)C(C)(C)C)[C@H]1Cc4ccc(O)c5c4[C@@]3(CCN1CC1CC1)C2O5 (stereo not given in full) | -0.7% | . | . | -18% | . | 8 | . |
| O=C1NC(=O)C(=Cc2ccco2)C(=O)N1 | . | . | . | 12% | . | -7 | -28% |
| COc1ccc2nc(/N=C/c3c(O)n(-c4cccc(Cl)c4)c(=O)[nH]c3=O)sc2c1 | -4.6% | -20% | 10 | 6% | ? | -10 | 5% |
| O=C(CSC1c2ccccc2-c2ccccc21)N/N=C/c1ccccc1C(=O)O | . | 16% | 16 | -13% | 1.0 | 4 | -1%[15.4 µM] |
| NC(=O)CN1CCCC1=O | -2.4% | 5%&12%&28% | 2 | 33%[activator] | -1.3 | -19 | . |
| CC(=O)OCC12CC(OC(=O)CC(C)C)C(C)=CC1OC1C(O)C(OC(C)=O)C2(C)C12CO2 (stereo not given) | ? | . | . | 6% | . | 14 | -20% |
| Cc1cc(/C=C2\C(=O)NC(=O)N(c3ccc(F)cc3)C2=O)c(C)n1-c1ccc(C(=O)O)cc1 | . | -27% | -4 | -21% | ? | -9 | -4%[15.4 µM] |
| Cc1ccc(N2C(=O)CC(=O)NC2=O)cc1 | -0.2% | -16% | -10 | -17% | 17 | 12 | -14% |
| Cc1cccc(C(=O)OCc2cc3ccccc3[nH]c2=O)c1 | -21% | 10% | -32 | 23% | -0.4 | 1 | ? |
| Cc1cc(NC(=O)COC(=O)c2c(C)nn(Cc3ccccc3)c2Cl)no1 | 2.1% | 11% | 9 | 12% | 1.9 | -4 | 17% |
| CCOP(=O)(C#Cc1ccccc1)C(O)c1ccc(Br)cc1 (stereo not given) | 1.4% | 3% | -17 | -4% | 3.0 | 12 | -18% |
| NC(=O)c1cc([N+](=O)[O-])cc([N+](=O)[O-])c1 | 1.4% | 8% | . | 2% | 0.9 | 4 | . |
| CCOP(=O)(OCC)C(NC(=O)c1ccccc1C)C(Cl)(Cl)Cl (stereo not given) | 0.4% | -8% | 4 | 12% | . | -4 | -33%[inhibitor] |
| COC(=O)C1=C(c2ccc(Cl)c(C(F)(F)F)c2)C[C@@H]2CC[C@H]1N2C(=O)NCCOc1ccccc1Cl | -2.5% | . | -8 | -13% | . | 7 | 8% |
| O=c1ccc2cc(OC3O[C@H](CO)[C@@H](O)[C@H](O)[C@H]3O)c(O)cc2o1 (stereo not given in full) | 4.9% | . | 0 | 18% | . | 3 | . |
| COc1ccc(C(=O)Nc2ccccc2-c2nnn(CC(=O)Nc3ccc4c(c3)OCCO4)n2)cc1 | ? | -29% | 19 | -5% | 1.4 | -2 | -73%[inhibitor] |
| O=C1CN=C(c2ccccc2)c2ccccc2N1Cc1ccc(C(F)(F)F)cc1 | -0.7% | 6% | -14 | ? | 0.4 | -15 | 5% |
| O=c1[nH]c(=O)n(Cc2ccccc2)c(O)c1C=NCCN1CCNCC1 | -0.3% | ? | 28 | 8% | 17 | -14 | -32% |
| CN1C(=O)C(=Cc2ccc(N3CCOCC3)c([N+](=O)[O-])c2)C(=O)N(C)C1=O | . | 22µM* | 0 | . | 0.7 | . | . |
| C=C[C@H]1CN2CC[C@H]1C[C@H]2[C@H](O)c1ccnc2ccccc12 | -2.6% | . | -9 | 6% | . | -1 | . |
| CN(CCc1ccccc1)Cc1c[nH]c2ccccc12 | 0.3% | 6% | 2 | 7% | 2.6 | -10 | 6% |
| CN1C(=O)CC(c2ccccc2)Nc2ccccc21 (stereo not given) | -0.6% | 16% | 5 | 3% | 3.0 | 7 | -3%[15.4 µM] |
| C[N+]1(C)C2CC(OC(=O)[C@H](CO)c3ccccc3)CC1C1OC12 (stereo not given in full) | 0.3%&-1.0% | . | . | -9% | . | 3 | . |
| Cc1ccccc1Cc1c(C)nc2nc(SCC(=O)N3CCC4(CC3)OCCO4)nn2c1C | -11% | -2% | 28 | -9% | -1.1 | 2 | 3% |
| CC(C)n1c(=O)c(C=Nc2ccc(Br)cc2)c(O)n(Cc2ccco2)c1=O | -21% | -23% | -1 | -22% | ? | 0 | -40%[inhibitor] |

Entries of single compounds, looked up by structure.
O=C1CN=C(c2ccccc2)c2ccccc2N1Cc1ccc(C(F)(F)F)cc1 across the screens: ClpP mod = -0.7%; Sfp inh = 6%; TRPV1 PAM = -14; gsp antag = ?; Menin-MLL FL inh = 0.4; TRPML1 blocker = -15; gsp ag = 5%
C[N+]1(C)C2CC(OC(=O)[C@H](CO)c3ccccc3)CC1C1OC12 (stereo not given in full) across the screens: ClpP mod = 0.3%&-1.0%; Sfp inh = .; TRPV1 PAM = .; gsp antag = -9%; Menin-MLL FL inh = .; TRPML1 blocker = 3; gsp ag = .

Other compounds follow:
| Compound | ClpP mod | Sfp inh | TRPV1 PAM | gsp antag | Menin-MLL FL inh | TRPML1 blocker | gsp ag |
| --- | --- | --- | --- | --- | --- | --- | --- |
| COc1ccc(C(CC(=O)c2ccc3c(c2)OCO3)c2c(O)c3ccccc3oc2=O)cc1OC (stereo not given) | 3.4% | . | . | . | . | 2 | -61%[inhibitor] |
| COc1cc2[nH]c(=O)n(-c3cccc(Cl)c3)c(=O)c2cc1OC | 28µM* | 14% | 8 | 0% | 0.2 | -10 | ? |
| CCOc1cc(-c2ccc(N)c(OCC)c2)ccc1N | 32µM* | -27% | -34 | 7% | ? | 8 | -10% |
| O=C1NC(=O)[C@]2(Cc3ccccc3N3CCN(c4ccccc4)CC32)C(=O)N1Cc1ccccc1 (stereo not given in full) | -0.8% | -20% | 1 | ? | -0.1 | -9 | -22% |
| Cc1cc(/C=C2/C(=O)NC(=O)N(Cc3ccco3)C2=O)c(C)n1-c1ccccc1 | 1.2% | -22% | 8 | 1% | . | -5 | -13%[15.4 µM] |
| Cc1cc(NC(=O)CSc2nc3c(c(=O)n2-c2ccc(Cl)cc2)SCC3)no1 | -0.4% | . | . | -13% | . | 0 | -62%[inhibitor] |
| O=C1NC(=S)N(c2ccc(F)cc2)C(=O)/C1=C/c1ccco1 | . | 25µM* | 6 | . | ? | . | . |
| Cc1c(NP(=O)(C(C)(C)C)C(C)(C)C)c(=O)n(-c2ccccc2)n1C | . | 14% | 2 | 8% | 2.7 | 24 | -20% |
| C[C@]12CCC3C(CC[C@H]4[C@@H](O)[C@H](O)CC[C@]34C)C1CCC2=O (stereo not given in full) | . | . | . | 2% | . | -2 | -19% |
| OC1CCCCC1N1CCC(c2ccccc2)CC1 (stereo not given) | -1.1% | 3%&13% | -5 | -4% | 4.5&4.5&-1.0 | 14 | . |
| COC(=O)C1=C(c2ccc(OC)c(OC)c2)C[C@@H]2CC[C@H]1N2C(=O)NCCOc1ccccc1Cl | 1.7% | . | 3 | 4% | . | 27 | . |
| COc1ccc(C=O)cc1O | 1.8% | 2% | 9 | 12% | 3.0 | 8 | -36%[inhibitor] |
| COC(=O)C1=C(c2ccc(C(C)=O)cc2)C[C@@H]2CC[C@H]1N2C(=O)N1CCC(C)CC1 | -1.2% | . | -22 | -7% | . | -17 | -30%[inhibitor] |
| c1ccc2c(CN3CCCCCCC3)c[nH]c2c1 | 28µM* | 5% | -1 | 8% | 2.9 | 3 | -70%[inhibitor] |
| COc1ccc(-n2c(O)c(C=NCCN(C)C)c(=O)[nH]c2=O)cc1 | 1.5% | -4% | 8 | 14% | 22 | -1 | -10%[15.4 µM] |
| CC(C)(C)n1cccc1/C=C1\C(=O)NC(=O)N(c2ccccc2)C1=O | -13% | -27% | -1 | ? | 5.6 | -6 | 1% |
| CN(CC(=O)Nc1ccc(N2CCOCC2)cc1)CC(=O)Nc1cccc(C#N)c1 | -3.0% | -1% | 15 | 3% | 0.2 | -27 | -2% |
| C[C@H](CO)N1C[C@H](C)[C@@H](CN(C)Cc2ccc(-c3ccccc3)cc2)Oc2c(NC(=O)c3ccncc3)cccc2C1=O | -1.3% | . | . | 32µM* | . | -7 | . |
| Cn1c(O)c(C=Nc2ccc(Cl)cc2)c(=O)n(C)c1=O | -1.2% | 8% | -10 | 24% | 1.1 | 3 | 0% |
| c1ccc(NC2=NCCCS2)cc1 | 0.6% | 15% | -8 | -3% | -6.9 | . | -26% |
| COc1cccc(C2CCN(C)C2)c1 (stereo not given) | -1.2% | . | . | . | . | -5 | 0% |
| O=C(O)C1CSC(c2cccnc2)N1 (stereo not given) | 2.6% | 56µM* | -4 | -10% | 0.0 | -6 | -34% |
| O=C(CSc1nnc(NC(=O)c2cccc(F)c2)s1)NCc1ccco1 | -1.8% | 13% | 26 | 4% | . | -12 | ? |
| CCOC(=O)c1[nH]c2ccc(OC)cc2c1C(SCC(=O)O)c1ccc(C(F)(F)F)cc1 (stereo not given) | 0.0% | 6% | 11 | -7% | -0.4 | -11 | -22%[15.4 µM] |

A different layout for part of the listing above:
Each structure is followed by: ClpP mod | Sfp inh | TRPV1 PAM | gsp antag | Menin-MLL FL inh | TRPML1 blocker | gsp ag
- Cc1c(NP(=O)(C(C)(C)C)C(C)(C)C)c(=O)n(-c2ccccc2)n1C
 : . | 14% | 2 | 8% | 2.7 | 24 | -20%
- C[C@]12CCC3C(CC[C@H]4[C@@H](O)[C@H](O)CC[C@]34C)C1CCC2=O (stereo not given in full)
 : . | . | . | 2% | . | -2 | -19%

Screening data from PubChem BioAssay.
